# Screening data: PubChem BioAssay, several laboratories
# VCAM-1 down imaging = inhibitors of TNFa-induced VCAM-1 surface display, imaging, high-content imaging, pooled HUVEC, TNFa stimulus (AID 456). inhibition, % at 5 µM; hits with a dose series show IC50 in µM. HUVEC TNFa-induced VCAM-1 surface expression, immunofluorescence imaging; numbers were filed only for top-ranked candidate wells. 10,000 tested, 0.2% active;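 active = top tenth filtered wells with inhibition above zero that passed visual or statistical confirmation; inactive = the rest, including hits rejected on review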;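 also: 0% = stimulated vehicle wells and 100% = unstimulated cells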
# VCAM-1 augmentation = enhancers of VCAM-1 display on endothelial cells, imaging, high-content imaging, pooled HUVEC, TNFa stimulus (AID 457). Pooled HUVEC, TNFa-induced VCAM-1 immunofluorescence imaging; hits of this screen are not shown here. calls only. 10,000 tested, 0.2% active;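 active = a top-ranked rise in VCAM-1 staining upheld on image or statistical review; inactive = the rest, including candidates rejected on review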;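 also: compounds tested at 5 µM in the well; cells exposed to compound for 24 hours before fixing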
# FPRL1 binder = human FPRL1 ligands by binding competition, primary screen, cell-based, FPR counter-screen, flow cytometry; N-formyl peptide receptor 2 (Homo sapiens), P25090; FPRL1-expressing cells, fluorescent ligand binding inhibition; inhibition, %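 (tested at 6.7 µM)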; 24,000 tested, 0.3% active; AID 441, 2006;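 also: 0% = buffer alone and 100% = receptor blocker peptide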
# Target sequence (P25090 whole entry, looked up): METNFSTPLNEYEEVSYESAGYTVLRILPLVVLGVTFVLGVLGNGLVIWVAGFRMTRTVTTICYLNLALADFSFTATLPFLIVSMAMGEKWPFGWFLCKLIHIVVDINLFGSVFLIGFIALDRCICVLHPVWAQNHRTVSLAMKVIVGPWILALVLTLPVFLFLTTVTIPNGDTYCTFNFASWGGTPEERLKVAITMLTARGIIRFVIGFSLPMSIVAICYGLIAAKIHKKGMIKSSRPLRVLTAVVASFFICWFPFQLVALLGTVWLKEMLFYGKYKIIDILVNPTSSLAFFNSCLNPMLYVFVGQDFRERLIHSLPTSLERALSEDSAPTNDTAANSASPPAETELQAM
# FPR ligand = human FPR ligands by binding competition, primary screen, cell-based, FPRL1 counter-screen, flow cytometry; FPR-expressing cells, fluorescent ligand binding; fMet-Leu-Phe receptor (Homo sapiens), P21462; AID 440, 2006; inhibition, %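 (tested at 6.7 µM)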; 24,000 tested, 0.74% active;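 also: 0% = buffer wells and 100% = receptor blocker peptide wells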
# Target sequence (P21462 whole entry, looked up): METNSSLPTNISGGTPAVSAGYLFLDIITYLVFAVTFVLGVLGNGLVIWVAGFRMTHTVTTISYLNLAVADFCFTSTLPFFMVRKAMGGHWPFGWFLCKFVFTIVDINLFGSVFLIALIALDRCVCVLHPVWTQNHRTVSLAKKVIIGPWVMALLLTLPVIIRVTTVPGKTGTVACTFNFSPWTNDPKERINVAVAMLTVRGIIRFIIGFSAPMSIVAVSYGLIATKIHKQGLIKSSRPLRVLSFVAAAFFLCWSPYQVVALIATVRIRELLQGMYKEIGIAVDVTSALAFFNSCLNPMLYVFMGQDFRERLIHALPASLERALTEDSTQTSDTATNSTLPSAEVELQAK
# VCAM-1 inhibition = inhibitors of TNFa-induced VCAM-1 surface display, cell-based, plate reader, pooled HUVEC, TNFa stimulus (AID 454); HUVEC TNFa-induced VCAM-1 surface immunofluorescence, plate reader; numbers were filed only for top-ranked candidate wells; inhibition, % at 5 µM; 10,000 tested, 0.2% active;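 active = compound among top-ranked inhibitors of TNF-induced VCAM-1 adhesion protein staining, with the hit upheld by image or statistical review; inactive = the rest, including hits rejected on review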;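 also: 0% = TNFa with vehicle and 100% = cells without TNFa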
# Starred values were filed as active, the others as inactive; i = inactive; . = no result given.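 The calls were made as follows, unless noted: active = mean above 30%; inconclusive = self-fluorescent; inactive = the rest.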 Not all compounds are listed (hit frequency here may not be typical).
SMILES,VCAM-1 down imaging,VCAM-1 augmentation,FPRL1 binder,FPR ligand,VCAM-1 inhibition
Cc1ccc(CN2C(=O)CCC2C(=O)N2CCN(c3ccc(F)cc3)CC2)cc1 (configuration not stated),.,.,0,-1,.
O=C(Nc1ccccc1Cl)N1CCN(c2ccc3nnc(-c4ccccc4)n3n2)CC1,.,.,6,11,.
CCOC(=O)N1CCN(C(=O)CSc2nnc(COc3ccccc3)o2)CC1,i,i,0,-1,i
C[C@H](NC(=O)Nc1cccc(C(F)(F)F)c1)C(=O)O,i,i,10,20,i
COc1ccc(F)cc1S(=O)(=O)NC1CC(C)(C)NC(C)(C)C1,.,.,4,0,.
Cc1c2c(nc3nc4ccccc4n13)CC(C)(C)CC2=O,i,i,3,-6,i
COc1ccc(OC)c(C2CC(=O)Nc3cc(OC)c(OC)c(OC)c32)c1 (configuration not stated),.,.,-2,5,.
COC(=O)CNc1c(-c2ccccn2)nc2ccc(Br)cn12,.,.,-5,7,.
COc1ccc(NC(=O)Cn2nnc(C(=O)NCc3cccc(OC)c3)c2N)cc1,.,.,0,-9,.
COCCNC(=O)CCc1nc(-c2ccccc2)no1,i,i,16,10,i
Cc1cc(C(F)F)n2ncc(C(=O)NC3CCCCCC3)c2n1,i,i,6,-3,i
CCOc1ccc(C2CC(=O)c3c([nH]c(C(=O)OC)c3C)C2)cc1OC (configuration not stated),.,.,10,1,.
Oc1c(CN2CCCCC2)cc(Br)c2cccnc12,.,.,-6,-19,.
COc1cccc(C2CC(c3ccc(C(C)C)cc3)n3nc(N)nc3N2)c1 (configuration not stated),.,.,-2,-2,.
Cc1ccc(-c2nnc(SCC(=O)N3c4ccccc4NC(=O)C3(C)C)n2N)cc1,i,i,1,-3,i
CCCCNC(=O)c1nn(-c2ccccc2OC)c(=O)c2ccccc12,.,.,-4,4,.
CC(=O)NCCc1ccc(S(=O)(=O)NCc2ccc3c(c2)OCO3)cc1,i,i,2,-15,i
Cc1cc(NC(=O)CS(=O)(=O)c2cn(Cc3ccccc3Cl)c3ccccc23)no1,i,i,1,2,i
C#CCN1C(=O)C(O)(CC(=O)c2cc(OC)ccc2OC)c2ccccc21 (configuration not stated),i,i,1,7,i
CCN(CC)CCCNC(=O)CC1Sc2ccccc2NC1=O (configuration not stated),.,.,1,-2,.
Cc1cc(OCC(O)CN(CCO)CCO)ccc1Cl (configuration not stated),.,.,-4,-6,.
CC(=O)CC(C)=NCCN=C(C)CC(C)=O,.,.,-4,0,.
O=S(=O)(c1ccc(F)cc1)N1CCCC(CO)C1 (configuration not stated),.,.,0,-1,.
CC(C)CNc1oc(-c2ccc(F)cc2)nc1C#N,i,i,-4,-1,i
CN(C)c1nc(Oc2ccc(N)cc2)nc(N(C)C)n1,i,i,-2,-3,i
COc1ccc(S(=O)(=O)Cc2ccc(C(=O)N3CCN(c4ccc(Cl)cc4)CC3)o2)cc1,.,.,0,4,.
CCn1c2ccccc2c2cc(NC(=O)CSc3nnc(C4CC4)n3Cc3ccco3)ccc21,i,i,-1,-2,i
Cc1ccc(CCC(=O)Nc2ccc(S(N)(=O)=O)cc2)o1,i,i,6,10,i
COc1ccc(-c2cc(C(F)(F)F)nc(N3CCN(Cc4ccccc4)CC3)n2)cc1OC,.,.,75*,8,.
CCc1nn(C(C)C(=O)NCCN2CCN(c3cccc(C)c3C)CC2)c(=O)c2cc3occc3n12 (configuration not stated),.,.,-14,-2,.
COc1ccc(Nc2nc(N)nc(CN3CCC(Cc4ccccc4)CC3)n2)cc1,.,.,6,-5,.
O=C(Nc1ccncc1)C1c2ccccc2Oc2ccccc21,i,i,2,0,i
Cc1ccc(S(=O)(=O)CC(=O)N2CCCCCC2)cc1,i,i,-1,4,i
O=c1c[n+]([O-])c2ccccc2n1OCc1c(F)cccc1F,i,i,2,-5,i
Cc1cc(C)c(NC(=O)CSc2nc3c(c(=O)n2C)SC(C)C3)c(C)c1 (configuration not stated),i,i,1,-3,i
O=C(c1ccccc1F)N1CCN=C1SCc1cccnc1,.,.,0,-3,.
CCc1nnc(NC(=O)CSc2nnc(-c3c[nH]c4ccccc34)n2C)s1,.,.,10,9,.
C(=N\n1cnnc1)/c1cccc(OCCOc2ccccc2)c1,i,i,0,0,i
O=C(CN1C(=O)c2ccccc2S1(=O)=O)NCc1ccccn1,i,i,-4,2,i
Brc1cccc(-c2cnc3n2CCCCC3)c1,i,i,-5,-1,i
CCCCCc1c(O)nc(SCC(=O)NCC2CCCO2)[nH]c1=O (configuration not stated),i,i,2,-2,i
COCCCNC(=O)c1ccc2c(c1)OCO2,i,i,0,5,i
COc1ccc(NC(=O)CNS(=O)(=O)c2ccc3nc(C)sc3c2)c(OC)c1,.,.,-1,-2,.
COc1ccc(CC(NC(C)=O)C(=O)N2CCN(C(=O)N(C(C)C)C(C)C)CC2)cc1 (configuration not stated),i,i,2,-5,i
COc1ccc(S(=O)(=O)NCc2ccc(C(=O)O)cc2)cc1,i,i,-3,0,i
CCOC(=O)C1CCN(S(=O)(=O)c2ccc3c4c(cccc24)C(=O)N3)CC1,.,.,3,-8,.
O=C(Nc1nnc(-c2ccccc2Cl)o1)c1ccc(S(=O)(=O)N2CCCCCC2)cc1,.,.,-5,31*,.
Cc1ccccc1CN1CCNC1=O,i,i,1,-1,i
COC(=O)C(C)Sc1nc2c(cnn2-c2ccc(C)cc2)c(=O)[nH]1 (configuration not stated),.,.,-2,10,.
COc1ccc(CCNC(=O)c2cc(-c3ccc4c(c3)OCO4)on2)cc1OC,.,.,-1,2,.
O=C(CSc1ccc2nnc(-c3ccc(F)cc3)n2n1)NCC1CCCO1 (configuration not stated),.,.,-1,-7,.
Cc1cc(C(=O)N(C2CCCCC2)C2CCCCC2)no1,.,.,6,-2,.
Cc1ccsc1C1C2=C(CC(C)(C)CC2=O)Nc2ncnn21 (configuration not stated),.,.,2,36*,.
CC12CC(NC(=O)N1c1cccc(C(=O)N3CCN(c4ccccc4F)CC3)c1)c1ccccc1O2 (configuration not stated),.,.,2,3,.
CC(C)OC(=O)c1cccc(C(=O)O)n1,i,i,-3,-5,i
COc1cc(NC(=O)c2ccccc2)c(OC)cc1NC(=O)CN1CCN(c2ccccn2)CC1,.,.,1,4,.
CCOC(=O)C1=C(CC)Nc2ccccc2N=C1NC(=O)Nc1ccccc1OC,i,i,1,13,i
Cc1cccc(NC(=O)CN(C)S(=O)(=O)c2cnc[nH]2)c1,.,.,5,1,.
CCOc1ccc(CC(=O)Nc2c(C(N)=O)oc3ccc(Br)cc23)cc1OCC,.,.,1,0,.
COCCN(CCOC)c1ncnc2c1cnn2-c1ccc(Cl)cc1,.,.,2,6,.
# (list continues)
SMILES,VCAM-1 down imaging,VCAM-1 augmentation,FPRL1 binder,FPR ligand,VCAM-1 inhibition
CN1CCN(S(=O)(=O)c2ccc(NC(=O)Nc3cccc(Cl)c3)cc2)CC1,i,i,-4,-6,i
CCN(C(=O)c1cn(C)c(=O)c2cc(OC)c(OC)cc12)c1cc(OC)ccc1OC,.,.,0,2,.
CC(=O)C1=C(C)NC(C)=C(C(C)=O)C1c1cccs1,i,i,4,1,i
COc1ccc(CCNC(=O)CC2Oc3ccc(Cl)cc3NC2=O)cc1OC (configuration not stated),.,.,-1,-1,.
CCC(C)n1c(NC(=O)c2ccccc2)c(C#N)c2nc3ccccc3nc21 (configuration not stated),.,.,-20,-5,.
CCOc1ccccc1C(=O)N(CN1CCCC1=O)c1cccc(Cl)c1,.,.,2,2,.
CC1CCN(C(=S)c2ccccc2O)CC1,i,i,-5,3,i
Cc1ccc(NC(=O)CC(NCCN2CCOCC2)C(=O)O)cc1Cl (configuration not stated),.,.,1,5,.
CCCn1nc(CC(=O)O)c2ccccc2c1=O,i,i,-1,6,i
COc1cccc(NC(=O)CN2C(=O)COc3ccc(Cl)cc32)c1,.,.,-4,-4,.
Cc1ccc(C)c(C(=O)CSc2n[nH]c(-c3ccncc3)n2)c1,.,.,-18,-3,.
Cc1ccc(S(=O)(=O)NCCC(=O)NCCN2CCCCCC2)cc1,.,.,6,-1,.
C=CCn1c(SCC(=O)c2ccc(OC)cc2)nnc1C(C)NC(=O)c1cccs1 (configuration not stated),i,i,4,7,i
O=C(CSc1nnc(-c2ccccc2)o1)N1CCN(c2ccccc2)CC1,i,i,0,24,i
c1nc(N2CCCC2)c2[nH]cnc2n1,.,.,-3,0,.
COc1cccc(C2=CC(c3cccc(OC)c3OC(F)F)n3nnnc3N2)c1 (configuration not stated),.,.,16,11,.
COc1ccccc1Oc1ccc(S(=O)(=O)N2CCOCC2)cc1S(=O)(=O)N1CCOCC1,i,i,7,-8,i
COc1ccccc1C(O)P(=O)(OC(C)C)c1ccc(N(C)C)cc1 (configuration not stated),i,i,-4,-3,i
Nn1c(SCC(=O)NC2CCCCC2)nnc1C1CC1,i,i,-7,4,i
O=C1SC(c2ccccc2)=C/C1=C\N1CCCCC1,.,.,0,1,.
CCc1ccccc1NC1c2ccccc2C(=O)N1Cc1ccco1 (configuration not stated),.,.,-8,2,.
O=C(NCc1ccc2c(c1)OCO2)C1CC(=O)N(C2CCCCCCC2)C1 (configuration not stated),.,.,0,-3,.
CCOC(=O)C1=C(C)NC(=O)NC1c1ccc(C)o1 (configuration not stated),.,.,-8,-1,.
O=C(NCc1ccco1)C1CCN(c2nc3ccccc3n2Cc2ccc(F)cc2)CC1,.,.,-3,0,.
N#Cc1c(N)n(CCOC(=O)c2cccc(Br)c2)c2nc3ccccc3nc12,i,i,-2,-8,i
O=C(NC1CCCCCC1)C1CCN(c2nc3ccccc3o2)CC1,.,.,-3,4,.
Cc1ccc(Cn2ccc(NC(=O)C3C4CCC(C4)C3C(=O)O)n2)cc1 (configuration not stated),.,.,5,6,.
COc1ccc(CCNC(=O)C2CCN(S(=O)(=O)c3cccc4nonc34)CC2)cc1OC,.,.,8,1,.
O=C(Nc1ccccn1)NC(C(F)(F)F)C(F)(F)F,i,i,-1,-4,i
Cc1ccc(-n2c(=O)c3sccc3n(CC(=O)N3CCCC3)c2=O)cc1,.,.,-4,2,.
O=C(CCCn1c(=O)[nH]c2ccsc2c1=O)N1CCN(c2ccccn2)CC1,i,i,-6,-4,i
CCOc1ccccc1NC(=O)CCn1c(=O)oc2ccccc21,.,.,0,-4,.
CCCC(=O)Nc1ccc2oc(-c3cccnc3)nc2c1,i,i,9,15,i
COc1ccc(CNC(=O)c2cc(-c3ccc(OC)c(OC)c3)on2)cc1,i,i,-1,4,i
Cc1cc(-c2ccccc2)c(C#N)c(N)n1,i,i,-4,4,i
Cc1ccc(Nc2nc(CSc3nnc(-c4cccs4)o3)cs2)cc1,i,i,7,20,i

# Overlap with the part before: six compounds; new compounds follow.
SMILES,VCAM-1 down imaging,VCAM-1 augmentation,FPRL1 binder,FPR ligand,VCAM-1 inhibition
O=C(CCCn1c(=O)[nH]c2ccsc2c1=O)N1CCN(c2ccccn2)CC1,i,i,-6,-4,i
CCOc1ccccc1NC(=O)CCn1c(=O)oc2ccccc21,.,.,0,-4,.
CCCC(=O)Nc1ccc2oc(-c3cccnc3)nc2c1,i,i,9,15,i
COc1ccc(CNC(=O)c2cc(-c3ccc(OC)c(OC)c3)on2)cc1,i,i,-1,4,i
Cc1cc(-c2ccccc2)c(C#N)c(N)n1,i,i,-4,4,i
Cc1ccc(Nc2nc(CSc3nnc(-c4cccs4)o3)cs2)cc1,i,i,7,20,i
O=C(Nc1cccc(C(F)(F)F)c1)c1ccco1,i,i,3,-3,i
O=S(=O)(c1ccc2nc(Cc3cccc(C(F)(F)F)c3)[nH]c2c1)N1CCOCC1,i,i,1,-5,i
Cc1cc(C(=O)N2CCN(C/C=C/c3ccccc3)CC2)no1,i,i,-4,0,i
CC(=O)Nc1nonc1-c1nc2ccccc2n1CCC(C)C,.,.,0,-3,.
O=C(NCc1n[nH]c(=S)n1-c1ccccc1)c1ccc(S(=O)(=O)N2CCOCC2)cc1,.,.,1,-4,.
O=C(C1CCCN(S(=O)(=O)Cc2ccccc2)C1)N1CCCCC1 (configuration not stated),.,.,0,-1,.
c1ccc2c(c1)nc(NCC1CCCO1)c1nnnn12 (configuration not stated),.,.,-12,-22,.
COc1ccc(C(=O)CSc2nnc(CNc3ccc(C)cc3C)o2)cc1,i,i,17,1,i
CC(CNCc1ccc2c(c1)OCO2)NCc1ccc2c(c1)OCO2 (configuration not stated),.,.,-3,-6,.
COC(=O)c1oc2ccc(OC)cc2c1N,i,i,-10,-14,i
